FEN1 inh: blocks human flap endonuclease 1. Recombinant FEN1 flap cleavage, fluorescence, 15 min. Potency, µM (titrated, usually from 114 µM), for inactives: at the top dose activity change, negative = inhibition, hits mostly inhibitors. actives 0.35% (n = 390,000); also: nearly all actives have a fitted effect of over 65% in size
Target sequence (P39748 whole entry, looked up): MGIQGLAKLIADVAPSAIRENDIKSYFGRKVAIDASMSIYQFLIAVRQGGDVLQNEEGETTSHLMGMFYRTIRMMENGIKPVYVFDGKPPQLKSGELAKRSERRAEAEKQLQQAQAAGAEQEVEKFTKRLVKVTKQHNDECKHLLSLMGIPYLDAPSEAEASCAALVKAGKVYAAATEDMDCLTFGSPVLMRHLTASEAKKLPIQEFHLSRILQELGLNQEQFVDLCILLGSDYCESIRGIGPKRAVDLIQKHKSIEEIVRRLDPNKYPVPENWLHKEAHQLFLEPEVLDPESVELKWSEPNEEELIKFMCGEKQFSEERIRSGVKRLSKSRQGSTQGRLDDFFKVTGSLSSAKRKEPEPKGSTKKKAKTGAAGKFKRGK
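Steps: FEN1 (10 nM) dispensed; compound added by pin tool; 15 min at room temperature; substrate added to 50 nM final; reads at 0 min and 15 min; data normalized and fitted (four-parameter Hill).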
GCN5L2 inh: inhibitors of human GCN5L2 histone acetyltransferase; Q92830; GCN5L2 HAT assay, ThioGlo1 CoA-SH fluorescence; Potency, µM (top dose mostly 58.9 µM), for inactives: at the highest dose activity change, negative = inhibition, most hits filed as inhibitors; actives 0.21% (n = 390,000); AID 504327
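Compounds, pin-transferred from DMSO stocks, meet 20nM GCN5L2 for 15 min before the reaction begins with H3(1-25) peptide (75uM) and acetyl-CoA (70uM). Thiol-reactive ThioGlo1 reports CoA release over 20 min at room temperature.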
* marks the source's active call; other numbers are inactive results; ? = inconclusive; . = no result given; & = joins results of further samples; [ ] = dose if it differs, or a comment. Calls follow the shape of the dose curve; as a rule, active = well fitted curve in the direction sought with a large enough effect; inconclusive = small, poorly fitted or top-dose-only effect, or another doubt; inactive = no such curve, though single readings can be large; an effect the other way counts as inactive or inconclusive. % is scaled to controls: 0 for no effect and ±100 for the full control effect; potency is read from the fitted curve at half-maximal effect. This is a subset; most or all hits stand in other tables.

Results follow in this order: FEN1 inh	GCN5L2 inh
COc1ccc(C(CC(=O)N2CCCCC2)C(C)C)cc1 (configuration not stated)
  -5%	-3%
CCOC(=O)N1CCc2c(sc3ncn(Cc4ccc(F)cc4)c(=O)c23)C1
  -6%	-5%
Cc1[nH]c(=S)n(CC2CCCO2)c1C (configuration not stated)
  -5%	0%
CCOc1ccc(NC(=S)NC(=O)Cc2ccccc2)cc1
  17%	-7%
COc1ccc(C(=O)OCC(=O)c2ccccc2)cc1S(=O)(=O)N1CCOCC1
  -16%	3%
Cc1onc(-c2ccccc2Cl)c1C(=O)N1CCN(C=O)CC1
  3%	-5%
O=C(CCc1ccccn1)N1CCCC(N2CCN(c3ccc(F)cc3)CC2)C1 (configuration not stated)
  -1%	?
N=c1c2c3c(sc2ncn1CCCO)CCCC3
  8%	-4%
CCC(C)NC(=O)Cn1ccc2cc(S(=O)(=O)N3CCCCCC3)ccc21 (configuration not stated)
  -4%&8%	-18%&-1%
CCN(C(=O)COc1cccnc1[N+](=O)[O-])C1CCS(=O)(=O)C1 (configuration not stated)
  -8%	-1%
O=C1CS/C(=N\C(=O)N2c3ccccc3Sc3ccccc32)N1
  -14%	2%
O=C(CC(Nc1ccccc1Cl)C(=O)O)c1ccccc1 (configuration not stated)
  -4%	14%
N[C@H](Cn1ccc(=O)c(O)c1)C(=O)O
  .	5%[21.4 µM]
CCN(CC)c1ccc(S(=O)(=O)N2CCOCC2)cc1NC(=O)COC(=O)COc1ccccc1C
  -5%	-8%
CCN(CC)S(=O)(=O)c1ccc(NC2=NS(=O)(=O)c3ccccc32)cc1
  10%	-1%
Cc1c(NC(=O)C(C)Sc2nc(N)cc(=O)[nH]2)c(=O)n(-c2ccccc2)n1C (configuration not stated)
  -5%	-13%
C/C(=N/NC(=O)c1cccc(N2CCCC2=O)c1)c1ccc(Br)cc1
  14%	-4%
O=C(Cc1ccc(S(=O)(=O)N2CCCCC2)s1)Nc1ccc(F)cc1F
  2%	0%
O=C(COc1ccccc1)NCCc1csc(-c2cccc(F)c2)n1
  6%	-8%
FC(F)(F)c1cccc(-c2nnn3c2nc(NC2CCCCC2)c2ccccc23)c1
  3%	-17%
CCC/C(=N/NC(=O)c1ccc2c(c1)OCO2)c1cccs1
  -1%	-8%
NNC(=O)CCc1nc2ccc(O)cc2[nH]1
  2%	-3%
CC(C)Nc1nnc(Sc2ccc(Cl)cc2[N+](=O)[O-])s1
  3%	0%
Cc1nc2ccccn2c1C(=O)CSc1ccccc1
  -1%	-1%
Nc1nc2n(n1)C(c1cccc(Cl)c1)CC(c1ccc(F)cc1)N2 (configuration not stated)
  -7%	0%
C=CCN(c1ccccc1C(=O)NCC(=O)O)S(=O)(=O)c1ccccc1C
  5%	1%
CSc1cccc(NC(=O)CCNS(=O)(=O)c2ccc3[nH]c(=O)oc3c2)c1
  4%	-19%
Cc1nnsc1S(=O)(=O)Cc1ccccc1C(F)(F)F
  -3%	-3%
Cc1ccc(CC(=O)N2CC(C)OC(C)C2)cc1 (configuration not stated)
  -7%	1%
NS(=O)(=O)c1ccc(CNC(=O)CCSCCC(=O)NCc2ccc(S(N)(=O)=O)cc2)cc1
  7%	-25%

Among those listed so far, these contain an aryl methoxy group:
Results follow in this order: FEN1 inh	GCN5L2 inh
COc1ccc(C(CC(=O)N2CCCCC2)C(C)C)cc1 (configuration not stated)
  -5%	-3%
COc1ccc(C(=O)OCC(=O)c2ccccc2)cc1S(=O)(=O)N1CCOCC1
  -16%	3%

(more compounds)
Results follow in this order: FEN1 inh	GCN5L2 inh
O=C(c1ccc(C(F)(F)F)cc1)N1CCC(c2noc(-c3ccc(S(=O)(=O)N4CCCC4)cc3)n2)CC1
  1%	1%
Cc1ccc(NC(=O)c2sc3nc(N4CCOCC4)c4c(c3c2N)CC(C)(C)OC4)cc1
  -6%	-4%
CC(C)c1ccccc1OCCNC(=O)c1cncc(Br)c1
  1%	-2%
C=C(C)c1cccc(C(C)(C)NC(=O)NCc2ccc(OC)c(OC)c2)c1
  -12%	-4%
CCOc1ccc(C2=Nn3c(CC)nnc3SC2)cc1
  11%	0%
Cc1cccc(-c2nc(Nc3ccc(N4CCOCC4)cc3)c3ccccc3n2)c1
  -15%	-10%
O=C1c2ccccc2C(O)(Cc2ccccc2)N1CCCN1CCOCC1 (configuration not stated)
  -13%	4%
C/C=C\c1ccc(OC)cc1
  .	-23%
C=CCSc1nc(N)cc(=O)[nH]1
  17%	3%
Cc1ccc(-c2ccnc(=S)[nH]2)cc1
  2%	?
Cc1nn2c(=O)cc(COC(=O)c3ccc(NC(=O)COc4ccc(Cl)cc4)cc3)nc2s1
  -1%	-5%
CCOC(=O)c1ccc(OCC(=O)c2ccc(O)cc2O)cc1
  11%	-4%
Cc1ccc(S(=O)(=O)N2CCC(C(=O)N3Cc4ccccc4C3)CC2)cc1
  6%	-11%
C=CCC1(CC=C)CCCN1C(=O)CC1C(=O)NCCN1Cc1cc(OC)cc(OC)c1 (configuration not stated)
  12%	-12%
CCCN1CCN(CCCNC(=O)c2ccc(CS(=O)c3ccc(OC)cc3)o2)CC1 (configuration not stated)
  5%&18%	-5%&-2%
CCc1ccccc1NC(=S)N1N=CCC1c1ccccc1 (configuration not stated)
  8%	-5%
COc1ccccc1C(=O)N1CCC(C(=O)c2ccc(F)cc2)CC1
  2%	-6%
CCOc1ccc(-c2nnc(SCC(=O)NCCc3ccc(OC)c(OC)c3)nc2-c2ccc(OCC)cc2)cc1
  -3%	-1%
N#CCSc1ncnc2ccccc12
  -18%	-1%
CCOC(=O)N1CCN(C(=O)CCCCCn2c(=S)[nH]c3ccsc3c2=O)CC1
  11%	-2%
Cc1c(C(=O)O)oc2ccc(S(=O)(=O)NCc3ccc4c(c3)OCO4)cc12
  4%	22%
CC(C)OC(=O)c1ccc(NC(=O)C2C3CC4OC(=O)C2C4C3)cc1 (configuration not stated)
  -5%	4%
Cc1ccc(-n2ncc(C(=O)NCCc3ccsc3)c2C2CCN(C(=O)OC(C)(C)C)CC2)c(C)c1
  -1%	?
COc1ccc(Nc2nc(Nc3ccc(OC)cc3)nc(-n3[nH]c(=O)c(C)c3C)n2)cc1
  -3%	-5%
CCc1ccc(NC(=O)c2cnc(N3CCN(c4ccccn4)CC3)c3ccccc23)cc1
  7%	-18%
O=C1c2ccccc2CC1Sc1nnc(-c2ccccn2)o1 (configuration not stated)
  1%	-6%
Cn1c(SCC(=O)NCc2ccco2)nnc1-c1ccc(S(=O)(=O)N2CCOCC2)cc1
  3%	-2%
CCOP(=O)(OCC)C(Nc1cccc(C(F)(F)F)c1)c1ccc(F)cc1 (configuration not stated)
  -11%	1%
Cc1ccc(CNC(=O)N2CCN(c3ccc(C)cc3)CC2)cc1
  17%	-5%
CC#C[C@@]1(O)CC[C@H]2[C@@H]3CCC4=CC(=O)CCC4=C3[C@H](c3ccc(N(C)C)cc3)C[C@]21C
  .	-4%[21.4 µM]
O=C(NC1CCCCC1)c1ccc(COCC(F)(F)F)o1
  -9%	-3%
CCOc1ccc(NC(=O)c2cc(S(=O)(=O)N3CCN(c4ccccc4F)CC3)ccc2F)cc1
  10%	-12%
O=C(c1ccccc1-c1nc(-c2ccccc2)no1)N1CCOCC1
  1%	0%
O=C(O)c1ccc(Cn2cnc3scc(-c4ccccc4)c3c2=O)cc1
  0%	-5%
COc1ccc(Cn2c(C)c(C)c(C#N)c2NC(=O)Nc2ccc(F)cc2)cc1
  -3%	1%
O=C(NCC1CCCO1)c1ccc(Cl)c(S(=O)(=O)Nc2ccccc2)c1 (configuration not stated)
  2%	-2%
COc1ccccc1N1N=C(C(=O)c2ccccc2)C2C(=O)N(c3ccc(Br)cc3)C(=O)C21 (configuration not stated)
  5%	-4%
Cc1nc2ccc(S(=O)(=O)NCC(=O)Nc3cccc(F)c3)cc2s1
  -1%	1%
Cc1ccc(CNC(=O)CSc2ncc3c(n2)-c2ccc(Cl)cc2N(Cc2ccccc2)S3(=O)=O)cc1
  19%	-13%
O=C(NCC1CCCO1)C1CCC(N2C(=O)c3ccccc3C2=O)CC1 (configuration not stated)
  1%	-6%
CCOc1ccc(-c2nn(CC(=O)NC3CCCCC3)c3c2cnc2ccc(C)cc23)cc1
  -5%	-7%
O=C(Nc1ccccc1C(=O)OCc1cc(=O)n2c3c(sc2n1)CCCC3)c1ccc(Cl)cc1
  18%	-4%
COc1ccc(-c2nc3ccc(C(=O)NCc4ccc(C)cc4)cc3nc2-c2ccc(OC)cc2)cc1
  -5%	0%
O=C(CP(=O)(c1ccccc1)c1ccccc1)N1CCOCC1
  3%	-4%
O=C(CSc1nc(-c2cccc(Cl)c2)nc2cc(=O)[nH]n12)Nc1ccccc1
  -33%	-7%
Fc1ccc(-c2nnc(N3CCOCC3)c3ccccc23)cc1F
  1%	-2%
CC(NC(=O)c1ccc(NC(=O)CC2SC(N3CCCC3)=NC2=O)cc1)c1ccc(S(N)(=O)=O)cc1 (configuration not stated)
  0%	-2%
Cc1cc(C)n(-c2nc(SCCN(C)C)c3c4c(sc3n2)CCCC4)n1
  ?	-10%
Nc1nc2n(n1)C(c1cccc(Br)c1)CC(c1ccccc1)N2 (configuration not stated)
  13%	0%
CCOC(=O)C1(CC)NC(c2ccco2)C2C(=O)N(CC)C(=O)C21 (configuration not stated)
  0%	3%
Cc1cc(C)nc(SCc2nc3ccccc3n2C)n1
  2%	0%
COc1cc2c(cc1OC)C1Cc3ccc(OC)c(OC)c3C[N+]1([O-])CC2 (configuration not stated)
  19%	20%
O=C(CSc1nnc(Cc2ccccc2)o1)NC1CCCCC1
  7%	-8%
O=C(CCc1nnc2ccc(N3CCCCC3)nn12)NCC1CCN(Cc2ccc(F)cc2)CC1
  -9%	-2%
O=C(NCc1cccs1)c1ccc(Cn2c(SCc3ccc(F)cc3)nc3cccnc32)cc1
  1%	-6%
CCOc1ccc(C(C(=O)NCC2CCCO2)N(C(=O)c2snc(C(N)=O)c2N)c2ccc3c(c2)OCCO3)cc1 (configuration not stated)
  -19%	-7%
C/C(CC1CC(C)(C)OC1=O)=N/Nc1nc(-c2ccccc2)cs1 (configuration not stated)
  -6%	-4%
O=C(CSc1nncn1-c1ccccc1)Nc1ccccc1F
  9%	-11%
Cc1nonc1CC(=O)NC1CCCc2c1cnn2-c1ccc(F)cc1F (configuration not stated)
  -1%	1%
COc1ccc(OC)c2sc(N3CCN(C(=O)C(C)(C)C)CC3)nc12
  14%	-1%

(cont.)
Results follow in this order: FEN1 inh	GCN5L2 inh
COc1cc(NC(=O)C(F)(F)F)cc(OC)c1
  0%	-5%
Cc1ccc(Cn2c(CN3CCOCC3)nc3c2c(=O)[nH]c(=O)n3C)cc1
  -3%	-13%
Cc1ccc(C(=O)NCC(c2ccco2)S(=O)(=O)c2cccs2)cc1C (configuration not stated)
  12%	-11%
Cn1cnc(S(=O)(=O)Nc2ccccc2C(=O)NCC2CC2)c1
  2%	-5%
CCn1c(SCC(=O)Nc2nc(C)c(C)s2)nnc1-c1cccnc1
  -5%	0%
COCCn1c(=S)[nH]c2cc(C(=O)N3CCc4ccccc43)ccc2c1=O
  -12%	-8%
COCCn1c(CN2CCc3ccccc3C2)nc2c1c(=O)n(C)c(=O)n2C
  11%	-5%
Cn1ccnc1Sc1cc(Cl)ccc1[N+](=O)[O-]
  -2%	2%
COc1cccc(O[C@@H]2O[C@@H]3COC(C)(C)O[C@H]3[C@H](O)[C@H]2NC(C)=O)c1
  -13%	5%
COc1cc(OC)c(NC(=O)c2ccc3c(c2)N(Cc2ccc(C)cc2)CCS3)cc1Cl
  10%	1%
Cn1c(=O)c2c(ncn2CC(=O)OCC(=O)NCc2ccc(Cl)cc2)n(C)c1=O
  -2%	-2%
COc1cc(OC)c(NC(=O)C2=C(C)C(=O)OC23CCCCC3)cc1Cl
  -11%	-2%
CSc1ccc(CCNC(=O)CCc2c(C)nc3c4cccnc4nn3c2C)cc1
  9%	2%
COc1cccc(NC(=O)C2CCN(Cc3cnn(-c4ccccc4)c3-n3cccc3)CC2)c1
  -5%	-14%
C/C=C/c1ccc(OCCCCn2cncn2)c(OC)c1
  -13%	-11%
COC(=O)c1nc2n(n1)C(c1ccc([N+](=O)[O-])cc1)C(C(=O)Nc1ccc(Cl)cc1)=C(C)N2 (configuration not stated)
  -6%	0%
COC(=O)c1ccc(NC(=O)Nc2ccc([N+](=O)[O-])cc2)cc1
  10%	-9%
CC(=O)c1ccc(S(=O)(=O)Nc2cccc(-c3ccc(N4CCCC4)nn3)c2)cc1
  -12%	-8%
CC(C)(C)NC(=O)NC(=O)COC(=O)Cc1coc2ccc3ccccc3c12
  -12%	-5%
O=C(O)c1ccccc1C(=O)OCCCCOC(=O)c1ccccc1C(=O)O
  0%	1%

Bioassay records: PubChem BioAssay, National Center for Advancing Translational Sciences (NCATS)
